Screens deposited in PubChem by National Center for Advancing Translational Sciences (NCATS).
Rango release inh – prevents RanGTP from dissociating the Rango-importin beta complex | O95149+P62826 | Biochemical FRET Rango-importin beta, RanGTP-induced dissociation | Potency, µM (doses to about 46.1 µM), for inactives: at the highest dose activity change, negative = inhibition | actives 0.071% (n = 340,000); active means falling FRET ratio curve, often poorly fitted, with flat reads before Ran was added; inconclusive means other falling curves, or compound fluorescence or quenching; inactive means flat or rising ratio curve;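 also: potency is read from the fitted curve at half-maximal effect; % of control where 0% means no effect; nearly all actives have a fitted effect of over 45% in size; -100% = wells without RanGTP and RCC1; the record marks most hits as doubtful in a second field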
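Rango/importin beta premix (0.1/0.25 uM final), PBS + 1 mM DTT + 0.02% Tween-20 + 0.1% BSA; cpd 5 min RT; FRET pre-read; + RanGTP-RCC1 (0.6 uM Ran, 2 mM GTP, 0.2 uM RCC1); 45 min RT; FRET post-read, ex 430, em 486/530 nm.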
Rango complex inh – inhibitors of Rango-importin beta complex formation; AID 540263; Potency, µM (top dose mostly 92.2 µM), without a hit: top-dose inhibition of complex formation; actives 0.031% (n = 340,000); Q14974; Rango CFP/YFP FRET sensor + importin beta, 45 min; active = rising FRET ratio curve, often small or poorly fitted; inconclusive = mostly compound fluorescence or quenching in the first reads; inactive = flat curves in all reads;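 also: potency is read from the fitted curve at half-maximal effect; 0% = DMSO wells and 100% = buffer wells lacking importin beta; nearly all actives have a fitted effect of over 15% in size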
Target sequence (Q14974 whole entry, looked up): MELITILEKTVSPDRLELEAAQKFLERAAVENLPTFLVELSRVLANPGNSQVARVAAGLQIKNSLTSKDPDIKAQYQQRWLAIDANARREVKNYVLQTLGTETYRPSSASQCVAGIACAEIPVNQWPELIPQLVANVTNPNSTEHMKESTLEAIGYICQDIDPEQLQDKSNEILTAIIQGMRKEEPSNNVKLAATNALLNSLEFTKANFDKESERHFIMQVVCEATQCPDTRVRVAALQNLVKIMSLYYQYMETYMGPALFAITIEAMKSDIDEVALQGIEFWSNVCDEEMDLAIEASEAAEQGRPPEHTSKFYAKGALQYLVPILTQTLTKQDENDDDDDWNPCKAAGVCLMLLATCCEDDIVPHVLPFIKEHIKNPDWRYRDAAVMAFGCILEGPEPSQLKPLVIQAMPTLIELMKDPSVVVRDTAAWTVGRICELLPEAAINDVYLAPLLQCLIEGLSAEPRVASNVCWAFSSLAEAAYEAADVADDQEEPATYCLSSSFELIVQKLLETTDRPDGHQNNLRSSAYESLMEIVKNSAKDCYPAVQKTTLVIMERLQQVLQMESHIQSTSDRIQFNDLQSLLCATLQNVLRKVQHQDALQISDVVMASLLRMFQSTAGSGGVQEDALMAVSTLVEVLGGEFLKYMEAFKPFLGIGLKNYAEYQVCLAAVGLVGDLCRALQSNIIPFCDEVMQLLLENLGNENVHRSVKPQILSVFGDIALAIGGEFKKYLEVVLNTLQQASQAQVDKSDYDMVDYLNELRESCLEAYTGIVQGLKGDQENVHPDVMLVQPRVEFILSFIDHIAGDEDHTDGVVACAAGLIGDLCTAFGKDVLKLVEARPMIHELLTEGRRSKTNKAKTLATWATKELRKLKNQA
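Inhibition scored from the CFP 486 nm/YFP 530 nm FRET ratio 45 min after adding 0.125 microM importin beta to 50 nM Rango biosensor preincubated 5 min with compound (room temperature, PBS with DTT, Tween-20, BSA). No-importin wells as positive control.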
GLA inh pH 4.5 – blocks human alpha-galactosidase A at pH 4.5; P06280; purified enzyme, 4-MU-alpha-Gal fluorescence, pH 4.5; activity change, negative = inhibition, % at 105 µM; 230,000 tested, under 10 active; AID 1467; inconclusive = small, poorly fitted or top-dose-only inhibition, or a rising curve; inactive = flat fitted curve, though single readings scatter; no compound was filed as active;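 also: 0% = full activity with enzyme and -100% = basal without enzyme; dose as in the result columns while the protocol names 77 µM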
miR-21 reporter – miR-21 reporter, rising signal; HeLa miR-21 FLuc reporter, luciferase, 48 h; 340,000 tested, under 10 active; Potency, µM (highest dose often 38.3 µM), for inactives: at the top dose reporter change, positive = more light; active = well fitted rising curve with a large enough effect; inconclusive = small, poorly fitted or top-dose-only effect; inactive = no such curve, though single readings can be large or run the other way;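 also: % of control where 0% means no effect; miR-21 action dims this reporter so a rising signal means less miR-21 action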
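Compounds were titrated across several concentrations (up to approximately 40 uM) and incubated 48 hours with HeLa miR-21-FLuc reporter cells (miR-21 target sequence downstream of FLuc, endogenous miR-21). Readout was firefly luciferase luminescence after lytic detection reagent.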
The depositor's hits bear a star; ? = inconclusive; · = no result given. An excerpt (hit frequency here may not be typical).

SMILES	Rango release inh	Rango complex inh	GLA inh pH 4.5	miR-21 reporter
Cc1cc(C(=O)NNC(=S)NCc2ccccc2)cs1	5%	-1.2%	-2	-17%
CCCCCCC(C)n1cc(C(C)=O)c(=O)n(C)c1=O (centres undefined)	-9%	-0.9%	8	-4%
O=C(CSc1n[nH]c(-c2ccccn2)n1)Nc1ccccc1F	10%	1.9%	·	22%
Cc1ccc(NC(=O)CCN2CCCCC2)cc1	13%	-6.0%	·	-5%
CCC(=O)Nc1cccc(-c2nnc(SCC(=O)c3ccccc3)n2C)c1	5%	0.1%	-1	-51%
O=C(COc1ccc(Cl)cc1Cl)NC1CCSC1=O (centres undefined)	0%	-2.7%	-6	-37%
CC1CCCC(C)N1C(=O)Cn1nnc(-c2ccc([N+](=O)[O-])cc2)n1 (centres undefined)	5%	-0.2%	·	-2%
COC(=O)c1cnc(N)s1	5%	0.6%	·	·
COc1ccccc1NS(=O)(=O)c1cc2c3c(c1)CCN3C(=O)CC2	9%	2.0%	·	·
CCc1ccc(OCC(=O)Nc2ccc(N3CCN(C(=O)c4ccccc4)CC3)cc2)cc1	13%	1.1%	·	2%
Cc1ccccc1CN1CCN(C2CCC2)CC1CCO (centres undefined)	-9%	-0.2%	·	0%
COc1ccc(C(=O)Nn2c(C3CCC3)nc3ccccc3c2=O)c(OC)c1	-9%	2.1%	-6	0%
COCC(C)n1c(SCC(=O)NC2CCCCC2C)nc2ccccc2c1=O (centres undefined)	1%	2.3%	·	·
O=C(CCCc1ccccc1)N1CCc2ccccc21	-11%	0.9%	0	-52%
CCOc1ccc(NC(=O)C2CCN(S(=O)(=O)c3cccnc3)CC2)cc1	2%	-0.3%	7	-2%
NC(=O)COC(=O)c1cccc(NS(=O)(=O)/C=C/c2ccccc2)c1	7%	-1.7%	-11	-13%
CCCc1nc(SCC(=O)NCc2ccco2)c2c(=O)n(C)c(=O)n(C)c2n1	-3%	1.3%	10	3%
O=[N+]([O-])c1ccc(N(CC(O)CN2CCCCC2)S(=O)(=O)c2ccccc2)cc1 (centres undefined)	-13%	-4.4%	·	-2%
COc1ccc(CCNc2c(N)n(Cc3ccccc3)c(=O)[nH]c2=O)cc1OC	?	?	8	-14%
CN(C)S(=O)(=O)N(CC(=O)N1CCN(c2ccccc2)CC1)c1ccccc1	-3%	2.6%	-7	-1%
CC(C)Cc1ccc(S(=O)(=O)Nc2ccccn2)cc1	7%	0.5%	3	-8%
CCOC(=O)C(=CNNc1ccsc1C(=O)OC)C(=O)OCC	15%	-0.1%	-21	-3%
NC(=O)C[C@@H]1NC(=O)[C@H](CCC(=O)O)NC(=O)c2cc([N+](=O)[O-])cc(I)c2OCC[C@@H](C(N)=O)NC1=O	4%	-1.4%	-3	-8%
CC1CCC(NC(=O)CN2C(=O)C3CC=CCC3C2=O)CC1 (centres undefined)	1%	0.1%	·	·
Cc1[nH]c(=O)[nH]c(=O)c1S(=O)(=O)Nc1ccc(Br)cc1F	20%	1.1%	·	0%
Next section:
SMILES	Rango release inh	Rango complex inh	GLA inh pH 4.5	miR-21 reporter
CC(NC(=O)CN1C(=O)NC(c2ccccc2)(c2ccccc2)C1=O)c1cccs1 (centres undefined)	0%	-0.5%	·	·
COc1ccc(C(=O)OCC(=O)Nc2ccc3[nH]c(=O)[nH]c3c2)c(OC)c1OC	9%	-3.5%	·	·
C=CCn1ccc(=NC=C(C#N)C#N)c2ccccc21	?	?	-4	12%
COC(=O)[C@H](CC(C)C)NC(=O)CCc1nnc(COc2ccccc2)o1	10%	-1.1%	2	-1%
CCOCCCNS(=O)(=O)c1ccc(OC)c(Cl)c1Cl	4%	2.2%	-4	-7%
NC(=O)Cn1nnc(-c2ccc(NC(=O)c3ccc(F)cc3)cc2)n1	9%	1.1%	-7	-55%
O=C(COC(=O)c1ccccc1Nc1ccccc1)c1ccccc1	5%	-2.1%	-3	-34%
COc1cc(C(c2c(C)[nH][nH]c2=O)c2c(C)[nH][nH]c2=O)cc(Cl)c1O	0%	0.4%	·	-1%
COc1ccc(/C=C(/C(=O)N2CCCCC2C(=O)O)c2ccc(OC)c(OC)c2)cc1 (centres undefined)	0%	1.0%	·	·
O=C1CCCC(O)=C1C(C#Cc1ccccc1)C1=C(O)CCCC1=O	?	1.3%	-1	-2%
CCC(C(=O)Nc1nc(C)c(C)s1)c1ccccc1 (centres undefined)	-13%	-0.5%	·	8%
O=C(C1CCCN1S(=O)(=O)c1cccc2cccnc12)N1CCc2ccccc21 (centres undefined)	-10%	6.5%	-5	-2%
CC(C)(C(=O)O)c1ccc([C@H](O)CCCN2CCC(C(O)(c3ccccc3)c3ccccc3)CC2)cc1	11%	6.2%	·	0%
O=C(N/N=C/c1ccccc1)c1ccc2c(c1)OCO2	-2%	-7.1%	·	-11%
O=C(Cc1ccc(F)cc1)Nc1ccc(S(=O)(=O)N2CCCCC2)cc1	8%	5.2%	-7	7%
C/C(=N\NC(=O)c1ccc(-c2ccccc2)cc1)c1cccc(N)c1	-8%	-0.6%	3	-1%
Cc1cccc(OCCC(=O)NNC(=O)Cn2nc(C)cc2C)c1	1%	-3.9%	·	·
Cc1c(Cc2ccccc2)sc(NC(=O)c2ccco2)c1C(N)=O	8%	-2.2%	1	-14%
O=C(O)CCC(=O)N1CCN(Cc2ccc3c(c2)OCO3)CC1	19%	-0.7%	·	0%
O=C(CC(c1ccccc1)c1cc(Br)ccc1O)NCc1ccco1 (centres undefined)	-3%	-1.3%	-6	19%
O=C(/C=C/c1cccc([N+](=O)[O-])c1)OCC1CCCO1 (centres undefined)	1%	-4.5%	·	3%
Cc1cccc(NC(=S)N=Nc2c(O)n(CN3CCOCC3)c3ccccc23)c1C	23%	3.6%	4	?
CC(C#N)(Cc1ccccc1)Nc1ccccc1 (centres undefined)	3%	-2.3%	·	·
O=C(CN1CCN(c2nc(-c3ccccc3)cs2)CC1)Nc1ccc2c(c1)OCO2	-5%	4.7%	-15	1%
CCOc1cc(S(=O)(=O)NCc2ccco2)c(OCC)cc1-n1cnnn1	-16%	-2.5%	-3	-11%
More results follow:
SMILES	Rango release inh	Rango complex inh	GLA inh pH 4.5	miR-21 reporter
Cn1c(=O)c(C(=O)NCc2ccccc2Cl)c(O)c2ccccc21	-5%	2.2%	·	-1%
O=Cc1cccn1-c1cccnc1	11%	-2.4%	5	-1%
CC(C)(C)NC(=O)NC(=O)COC(=O)c1c(F)cccc1Cl	-4%	-1.9%	2	-47%
CC(C(=O)O)c1ccc(C(=O)c2ccccc2)s1 (centres undefined)	-6%	-0.2%	·	·
CS(=O)(=O)N(CC(=O)N1CCN(c2ccccc2F)CC1)c1cccc(C(F)(F)F)c1	-14%	0.9%	1	10%
CCOC(=O)C1CCCN(Cc2cccc(Cl)c2)C1 (centres undefined)	-1%	-2.7%	-3	-59%
CN1CCN(C(=O)c2cccc(S(=O)(=O)N3CCCCC3)c2)CC1	0%	-4.4%	6	2%
Cc1ccccc1NC(=O)c1ccccc1NC(=O)CCC(=O)O	9%	5.9%	-1	-8%
CCOC(=O)C1=C(C)N(CCCC(=O)O)C(=O)NC1c1ccccc1OS(=O)(=O)c1ccc(C)cc1 (centres undefined)	-7%	-0.6%	3	-10%
COc1ccc(-n2c(=S)[nH]c3c(sc(=S)n3-c3ccccc3)c2=O)c(OC)c1	-5%	0.3%	-4	-2%
CCCCOC(=O)c1nnc(-c2ccccc2)o1	16%	1.3%	7	-15%
Cc1ccnc(OC(C(=O)O)C(OCc2ccccc2)(c2ccc(F)cc2)c2ccc(F)cc2)n1 (centres undefined)	-13%	-2.7%	·	22%
COc1ccccc1C(=O)NCc1ccc2c(c1)OCO2	1%	-3.0%	-12	-25%
O=C1OCC2=C1C(c1ccc(F)cc1)Sc1ccccc1N2 (centres undefined)	-2%	?	-4	21%
O=C(COc1cccnc1[N+](=O)[O-])NCc1ccc(F)cc1	-14%	-3.3%	·	-10%
Cc1ccc(C(O)c2nc3ccccc3n2C)cc1 (centres undefined)	-7%	-0.5%	·	-6%
Cc1cc(C)nc(-n2nc(C)cc2NC(=O)c2cccc(S(=O)(=O)N3CCOCC3)c2)n1	-3%	0.6%	1	-2%
O=C(Cc1cn(Cc2cccc(Cl)c2)c2ccccc12)N1CCCC1	17%	-1.1%	6	-2%
Cc1ccc(C(C(=O)NCc2ccc(F)cc2)N(C(=O)c2csnn2)C2CC2)cc1 (centres undefined)	11%	0.2%	·	-1%
CCOC(=O)c1c(C)[nH]c(C(=O)Cn2c(=O)oc3ccccc32)c1C	8%	-0.3%	-4	-25%
CCNC(=S)NNC(=O)Nc1ccccc1	-2%	-0.9%	4	-5%
COc1ccc(OC)c([N+](=O)[O-])c1C(N)=O	1%	-4.6%	6	-1%
Cc1ccc2c(c1)N(CCC(=O)NCCCOC(C)C)C(=O)C(C)O2 (centres undefined)	-3%	-5.0%	5	-2%
Cc1cc(C(=O)N/N=C/C=C/c2ccccc2)n[nH]1	8%	-2.7%	-2	-23%
COCCCNC(=O)Cn1nnc(-c2ccc(NC(=O)c3cccnc3)cc2)n1	·	·	-6	0%
The results go on:
SMILES	Rango release inh	Rango complex inh	GLA inh pH 4.5	miR-21 reporter
Cc1ccc(C)c2c1cc(C)c1nnc(SCC(=O)c3cccs3)n12	1%	-1.9%	4	-13%
COc1ccc(-c2ccc(-c3nnc(Cc4ccc(OC)c(OC)c4)o3)cc2)cc1	7%	-3.5%	2	-7%
CS(=O)(=O)N1CCC(C(=O)Nc2cc(C(F)(F)F)ccc2Cl)CC1	1%	-0.2%	-4	-5%
C#CCOC(=O)C[N+](C)(C)CC#Cc1ccccc1	-1%	?	-3	2%
COc1ccc(N2CCN(C(=O)CCC(=O)N3CCOc4ccc(Cl)cc43)CC2)cc1	16%	4.4%	·	16%
O=C(C1CCCO1)N1CCN(c2ccc(F)cc2)CC1 (centres undefined)	28%	4.7%	4	-7%
COc1ccc(CCNC(=O)c2nnc(CS(=O)(=O)c3ccccc3)o2)cc1OC	10%	6.1%	·	4%
Cc1ccc(NC(=O)COc2ccc(Cl)cc2Cl)cc1S(=O)(=O)N1CCOCC1	-8%	?	·	·
c1ccc(-n2cc(CNCCc3cscn3)c(-c3ccc4c(c3)OCO4)n2)cc1	20%	?	-7	0%
CC(=O)c1ccc(S(=O)(=O)Nc2ccc(C(=O)NCCCn3ccnc3)cc2)cc1	-2%	1.2%	·	·
CCN1CCCC1CNC(=O)c1cc(OC)c(OC)c(OC)c1 (centres undefined)	3%	-3.0%	2	-2%
COc1ccc(Cl)cc1NC(=O)Nc1cccc([N+](=O)[O-])c1C	-10%	-1.3%	-3	0%
CC[C@@]1(C(=O)OC)N[C@H](CN(C)S(=O)(=O)c2ccccc2)[C@@H]2C(=O)N(C)C(=O)[C@@H]21	9%	-0.6%	·	·
O=C(CN(C(=O)c1csnn1)c1ccc(Cl)cc1)NCCc1ccccc1	1%	0.0%	·	1%
C=CCCN(C(CC(C)C)C(=O)OC)S(=O)(=O)c1ccccc1Br (centres undefined)	1%	-1.4%	-20	7%
O=C(Nc1c2c(nn1-c1cccc(Cl)c1)CS(=O)C2)c1ccc2c(c1)OCO2 (centres undefined)	0%	1.0%	·	-6%
COc1cccc(-c2nn(-c3ccccc3)cc2C(=O)NCC(=O)O)c1	1%	2.0%	0	4%
